Six1-Eya2 blk = qHTS Assay for Inhibitors of the Six1/Eya2 Interaction; activity change, % (no concentration beside the values); AlphaScreen GST-Six1/His-Eya2 binding, biochemical; stronger effect = lower value; control for the full effect not named in the record; 360,000 compounds, 0.56% hits; AID 651725, 2012; in the data active = activity change below about -65%; inconclusive = about -30% to -65%; inactive = above about -30%; also: % is scaled to controls: 0 for no effect and ±100 for the full control effect
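AlphaScreen with GST-Six1 and His-Eya2 (5X mix: 250 nM and 500 nM), glutathione donor and nickel acceptor beads; buffer 50 mM Tris pH 8.0, 300 mM NaCl, 1 mM TCEP; 1 h at 37 C in the dark.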
CtBP-E1A inh = qHTS Assay for Inhibitors of the CtBP/E1A Interaction. 340,000 compounds, 0.49% hits. AlphaScreen GST-E1A/His-CtBP binding, 1536-well; stronger effect = lower value; control for the full effect not named in the record. CtBP / adenovirus E1A interaction (AlphaScreen). AID 651724, 2012. activity change, % (test concentration not listed); in the data active means activity change below about -65%; inconclusive means about -30% to -65%; inactive means above about -30%; also: % is scaled to controls: 0 for no effect and ±100 for the full control effect
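GST-E1A and His-tagged CtBP (125 nM each as 5X stock) were preincubated with pin-transferred compound for 2 h at 37 °C in the dark, then glutathione donor and nickel acceptor beads were added for 1 h before AlphaScreen reading.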
D2 ag = Beta-Arrestin HTS for Positive Allosteric Modulators of the Human D2 Dopamine Receptor: Agonists; activation, % (no concentration beside the values); AID 624465, 2012; DiscoveRx PathHunter D2 beta-arrestin, luminescence, 90 min; 100% = 57 uM dopamine signal; 360,000 compounds, 0.084% hits; D(2) dopamine receptor (Homo sapiens), P14416; in the data active = activation above about 40%; inconclusive = about 15% to 40%; inactive = below about 15%; also: compound concentration not given in the record; the text of the record calls up to 30% inactive
Target sequence (P14416 whole entry, looked up): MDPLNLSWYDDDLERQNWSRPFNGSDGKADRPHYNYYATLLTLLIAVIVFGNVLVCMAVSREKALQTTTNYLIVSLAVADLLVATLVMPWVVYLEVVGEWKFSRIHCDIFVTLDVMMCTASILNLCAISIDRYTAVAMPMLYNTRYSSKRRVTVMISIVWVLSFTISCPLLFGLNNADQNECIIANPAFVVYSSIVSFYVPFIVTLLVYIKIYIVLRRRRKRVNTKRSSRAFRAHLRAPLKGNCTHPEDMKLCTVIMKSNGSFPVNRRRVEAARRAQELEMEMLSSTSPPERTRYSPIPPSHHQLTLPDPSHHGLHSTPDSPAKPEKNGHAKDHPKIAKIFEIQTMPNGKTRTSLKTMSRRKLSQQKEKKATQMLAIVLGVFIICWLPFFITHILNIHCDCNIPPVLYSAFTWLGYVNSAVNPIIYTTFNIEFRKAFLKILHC
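Agonist mode: compounds alone added to overnight-plated D2 PathHunter cells for 90 min at 37 C, with 57 uM final dopamine (EC100) defining full response. Beta-arrestin recruitment detected by chemiluminescent reagent, read after 1 h at ambient temperature.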
gsp agonist = qHTS for Agonist of gsp, the Etiologic Mutation Responsible for Fibrous Dysplasia/McCune-Albright Syndrome: qHTS. gsp mutant cells, cAMP HTRF, 30 min; control for the full effect not named in the record. 340,000 compounds, 0.13% hits. Potency, µM (series often up to 76.9 µM), for inactives: top-dose activation (cAMP increase), usual class: activators. AID 624287, 2012; active = well fitted activation curve with a large enough effect; inconclusive = small, poorly fitted or top-dose-only effect, or another doubt; inactive = no such curve, though single readings can be large or run the other way; cell line not stated here;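 also: phosphodiesterase inhibitor Ro 20-1724 added with compounds to block cAMP breakdown; potency is read from the fitted curve at half-maximal effect; nearly all actives have a fitted effect of over 60% in size; about a fifth of the inactives were tested at one dose only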
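Cells stably selected in G418 were plated at 2000/well, grown 16-24 hr, then given compounds in DMSO with the PDE inhibitor […] (300 uM solution added) for 30 min at 37C; cAMP was read by HTRF.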
gsp antag = qHTS for Antagonists of gsp, the Etiologic Mutation Responsible for Fibrous Dysplasia/McCune-Albright Syndrome: qHTS. Potency, µM (top dose mostly 76.9 µM), for the others: at the top dose activity change, negative = inhibition, most hits filed as inhibitors. 340,000 compounds, 0.4% hits. gsp-mutant cells, cAMP HTRF, 30 min; control for the full effect not named in the record. AID 624288, 2012; active = falling curve of any shape with a large fitted effect; inconclusive = falling curve, mostly with a smaller effect; inactive = flat or rising curve; cell line not stated here;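 also: intracellular cAMP measured with PDE inhibitor Ro 20-1724 present during compound exposure; potency is read from the fitted curve at half-maximal effect; % is scaled to controls: 0 for no effect and ±100 for the full control effect; nearly all actives have a fitted effect of over 65% in size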
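HTRF cAMP read-out (cAMP-d2 plus anti-cAMP antibody-K in lysis buffer, 30 min RT). Before lysis, cells are exposed to compounds with […] for 30 min at 37C in DPBS containing Ca/Mg, BSA and Tween 20.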
D2 PAM = Beta-Arrestin HTS for Positive Allosteric Modulators of the Human D2 Dopamine Receptor: Potentiators. DiscoveRx D2 beta-arrestin cells, luminescence, 90 min; 100% = 57 uM dopamine signal. potentiation, % (test concentration not listed). 360,000 compounds, 0.23% hits. AID 624464, 2012; active = potentiation of 50% or more; inconclusive = 30% to 50%; inactive = 30% or less;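 also: compound concentration not given in the record; tested on top of an EC20 dose of dopamine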
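PathHunter D2 cells, attached overnight at 37 deg C, received compound in DMSO plus dopamine at EC20 (50 nM final) for 90 min at 37 deg C. Beta-arrestin recruitment was read as luminescence after 1 h with detection reagent at ambient temperature.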
An asterisk follows results filed as active; ? = inconclusive; . = no result given; [ ] = another dose, or the depositor's remark.

Structure,Six1-Eya2 blk,CtBP-E1A inh,D2 ag,gsp agonist,gsp antag,D2 PAM
CCOc1ccc(-n2c(C)nnc2SCC(=O)N(CC)CC)cc1,7,7,-3.7,-39%[inhibitor],2%,2
Cn1c(=O)c2[nH]c(SCc3cccnc3)nc2n(C)c1=S,9,0,-1.7,20%,-3%,1
COc1c(Cl)ccc(Cl)c1C(=O)OCC(=O)O,2,11,1.4,18%,-4%,-11
Cc1nc(Cl)cc(N/N=C/c2ccccc2)n1,-2,.,7.8,2%,-6%,-2
O=C(COC(=O)C1CCC(=O)N1)Nc1cc(Cl)ccc1Cl (stereo not drawn),2,8,-0.4,-3%,11%,-7
O=C(Nc1ccccc1N1CCOCC1)c1ccc2ccccc2c1,0,3,-1.5,1%,-13%,0
O=C(CCN1C(=O)c2ccccc2S1(=O)=O)Nc1ccc(C(=O)O)cc1,3,4,-2.1,-45%[inhibitor],10%,2
O=C1C=C(O)C(n2cncn2)C(c2cc(F)ccc2F)C1 (stereo not drawn),-1,4,-1.4,-1%[15.4 µM],3%,3
CCOc1ccc(N(CC(=O)NCCSCc2ccccc2Cl)S(C)(=O)=O)cc1,-5,.,4.9,-46%[inhibitor],-16%,-2
COc1ccc(C(=O)N[C@H](C(=O)NCc2ccc(C)cc2)C(C)C)cc1,6,4,-2.3,42%,11%,-7

Shown with two lines to a compound: entries from further up.
Values run as follows: Six1-Eya2 blk, CtBP-E1A inh, D2 ag, gsp agonist, gsp antag, D2 PAM
CCOc1ccc(-n2c(C)nnc2SCC(=O)N(CC)CC)cc1
 : 7, 7, -3.7, -39%[inhibitor], 2%, 2
Cn1c(=O)c2[nH]c(SCc3cccnc3)nc2n(C)c1=S
 : 9, 0, -1.7, 20%, -3%, 1

Following part:
Structure,Six1-Eya2 blk,CtBP-E1A inh,D2 ag,gsp agonist,gsp antag,D2 PAM
COc1ccccc1CCC(=O)Oc1ccc(C#N)cc1OC,-5,-10,-0.2,12%,4%,5
CCOC(=O)c1c(C)n(CCNC(C)=O)c2ccc(O)cc12,1,4,1.8,-31%[inhibitor],-2%,9
O=C1c2ccccc2C(=O)N1CCCCSc1nnc(-c2ccc(OC(F)F)cc2)o1,8,7,3.5,-6%,?,11
CCN(CC(=O)NC1CCS(=O)(=O)C1)S(=O)(=O)c1ccc(C)c(C)c1 (stereo not drawn),-3,5,-1.3,18%,5%,-6
CC(=O)N1CCc2ccc(S(=O)(=O)N3CCc4ccccc43)cc21,0,5,-18,?,-19%,15
CCOc1ccccc1NC(=O)Nc1cccc(C(C)=O)c1,-20,-18,-1.2,1%,-8%,-16
Cc1ccccc1NC(=O)c1cccc2c1C(=O)N(C1CCCCC1)C2,0,0,1.1,-29%,6%,-8
O=C(CCN1C(=O)/C(=C/c2ccccc2Cl)SC1=S)Nc1cccnc1,-12,.,4.8,-8%,4%,-7
Cc1onc(-c2ccccc2Cl)c1C(=O)NC(=S)Nc1ccccc1F,5,.,-3.2,-11%,-18%,-14
OC1COC(c2ccccc2)OC1C(O)C1OC(c2ccccc2)OCC1O (stereo not drawn),5,1,2.0,-9%,3%,-1
CCCCc1nnc(NC(=O)COC)s1,5,-2,-6.8,0%[15.4 µM],11%,-18
C=CCn1c(SCC(=O)Nc2ccccc2C)nc(O)cc1=O,7,-6,-12,3%,6%,-5
CCN(CC)C(=O)c1cccc(-c2csc(C(O)c3ccccc3)n2)c1 (stereo not drawn),2,1,0.8,.,.,-4
O=C(Nc1cccc(C(F)(F)F)c1)Nc1ccon1,0,1,-2.9,6%,7%,-44
O=C(Nc1ccccc1)N(CCCN1CCOCC1)Cc1cccs1,5,-6,-9.1,?,-3%,-3
COc1ccccc1C(=O)Nc1ccnn1C1CCN(C(C)CSC)CC1 (stereo not drawn),6,2,-0.7,-5%,18%,-6
Cc1ccc(Cn2cc(S(=O)(=O)c3ccc(Cl)cc3)c(=O)c3cc(F)ccc32)cc1,6,6,-1.9,1%,-12%,-8
O=c1c2ccccc2nc2c3ccccc3c(NCc3ccco3)nn12,?,?,-4.1,18%,-10%,-5
COc1ccc(N2CCN(C(=O)CSc3nnc4c(C)cc5c(C)cc(C)cc5n34)CC2)cc1,?,-28,-3.8,-12%,-21%,-16
CCOC(=O)c1ccccc1C(=O)N1CCOCCOCCOCC1,-12,-13,-1.5,-18%[15.4 µM],14%,-6
O=C(c1cc(-c2ccccc2)nc2ccccc12)N1CCOCC1,2,0,-1.4,29%,5%,-7
CCn1c(SCC(=O)NC(C)C(C)C)nc2cc(S(=O)(=O)N3CCOCC3)ccc21 (stereo not drawn),-2,5,3.8,-4%,3%,6
CCOc1ccc(C(CC(=O)O)NC(=O)c2ccco2)cc1OC (stereo not drawn),-1,-1,-3.9,?,8%,-18
CCN1CCN(S(=O)(=O)c2ccc(OC)cc2)CC1,0,-9,-3.1,-5%[15.4 µM],-11%,-5
Cc1cccc(NC(=S)NNC(=O)c2nn(C)cc2Cl)c1,-13,-14,-4.5,0%,-4%,-6
CCOCCCn1c(SCC(=O)N(C)C2CCS(=O)(=O)C2)nc2ccccc2c1=O (stereo not drawn),-7,4,-1.7,4%[15.4 µM],-2%,-1
CN(C)/C=C/C(=O)c1ccc(-c2ccc(Cl)cc2Cl)o1,-6,-1,-4.1,-6%[15.4 µM],1%,-13
O=S(=O)(O)c1ccc2c(c1)C(C(Cl)(Cl)Cl)OC(C(Cl)(Cl)Cl)O2 (stereo not drawn),1,4,-3.1,0%[15.4 µM],-6%,-18
O=C(Nc1cccc(F)c1)c1ccccc1-c1ccccc1,4,8,1.3,?,-5%,-8
CC(=O)Nc1ccc(NC(=S)NC(=O)C2CC2)cc1,15,-5,-4.6,10%[15.4 µM],-11%,0
Cc1ccc(C(CC(=O)N2CCCC2)c2ccccc2)c(O)c1 (stereo not drawn),5,3,2.9,0%,0%,1
O=C1OCC(c2ccccc2)=C1c1ccc(S(=O)(=O)N2CCOCC2)s1,-7,2,1.4,-26%,-32%,8
CC(=O)c1sc(NC(=O)C=C(C)C)nc1C,4,-9,-3.1,17%,-3%,-3
CC(C)c1nc(Cl)c(C#N)c2c1CCC2,11,8,1.1,-6%[15.4 µM],7%,-22
COc1ccccc1S(=O)Cc1ccc(C(=O)NCCc2ccc(Cl)cc2)o1 (stereo not drawn),-7,4,0.9,-63%[inhibitor],-19%,-6
COCCCNC(=O)c1ccc(N2CCCC2)c(NS(=O)(=O)c2ccc(C)cc2)c1,-3,5,-1.6,9%,2%,-1
COc1ccc(S(=O)(=O)c2ccccc2)cc1NC(=O)c1c(F)cccc1F,-16,.,-3.2,-14%,-8%,3
Cc1cc(-c2n[nH]c(=S)n2/N=C/c2ccc(C)s2)n[nH]1,-4,2,2.3,10%,-8%,-3
O=C(Cc1cccs1)N1CCCC(c2nc3c(nnn3Cc3ccc(F)cc3)c(=O)[nH]2)C1 (stereo not drawn),0,-5,-1.8,3%,-7%,0
CN(C(=O)c1cc(C(=O)N(C)c2ccccc2)cc([N+](=O)[O-])c1)c1ccccc1,-2,-4,-1.2,-7%,-11%,0
CCCCCCCCNC(=O)c1cccnc1SCC(=O)Nc1ccccc1OC,-4,21,-2.3,-6%[15.4 µM],-9%,-5
O=C(O)/C(=C\c1ccccc1)c1ccccc1,7,3,-3.1,0%[15.4 µM],-4%,-2
CS(=O)(=O)c1ccc(Cl)c(C(=O)OCC(=O)NC2CCCCCCC2)c1,0,1,1.7,22%,-5%,1
CN(CC(=O)NCCc1ccccc1)S(=O)(=O)c1ccc(Br)cc1,8,-3,-1.0,20%,10%,-13
COc1cc(NC(=O)C2CCN(S(=O)(=O)c3ccc(N4CCCC4=O)cc3)CC2)cc(OC)c1,?,?,-2.9,0%,?,-33
CCN1CCN(C(=O)CCc2nnc(CCc3c[nH]c4ccccc34)o2)[C@@H](C)C1=O,3,0,5.8,23%,-4%,3
CC1(C(=O)NS(=O)(=O)c2cccc(F)c2)CCN1C(=O)CC1CCCC1 (stereo not drawn),-6,12,9.6,.,.,2
CC(NC(=O)c1cc(F)c(F)cc1Cl)c1ccncc1 (stereo not drawn),1,-2,-3.9,-3%,8%,-2
COc1cc(CCC(=O)NCc2ccc(S(N)(=O)=O)cc2)cc(OC)c1OC,6,5,8.7,-16%,-4%,-2
NC(=O)c1ccsc1NC(=O)COC(=O)Cc1ccccc1[N+](=O)[O-],2,-10,-1.9,-27%,.,-5

Next entries follow:
Structure,Six1-Eya2 blk,CtBP-E1A inh,D2 ag,gsp agonist,gsp antag,D2 PAM
CCc1ccccc1NC(=O)c1cc(-c2ccco2)on1,4,5,-3.7,1%[15.4 µM],2%,6
O=C(NC1CCCCC1)c1cccc(N2C(=O)CCC2=O)c1,10,-1,-2.4,-11%[15.4 µM],7%,-69
CC(C(=O)OCC(=O)Nc1cccc(S(=O)(=O)N(C)C)c1)N1C(=O)c2ccccc2C1=O (stereo not drawn),-4,3,-0.4,17%,-13%,-7
CN(CC(=O)Nc1cccc(F)c1)CC(=O)N(C)CC(=O)Nc1ccccc1Br,-2,0,0.8,-2%,8%,-13
CCN(CC)c1ccc(/C=N/NC(=O)c2c(-c3ccccc3)noc2C)cc1,-22,-14,1.6,7%,-17%,-5
COc1cccc2c(=O)cn[nH]c12,-3,-8,-1.8,-15%,14%,-18
O=C1N=C(N2CCOCC2)SC1=C1CCCCC1,1,0,-1.8,1%,5%,-3
CS(=O)(=O)c1ccc(N2CCOCC2)c(S(C)(=O)=O)c1,0,4,-2.4,12%,8%,6
CCOC(=O)c1csc(NC(=O)CSc2nnnn2-c2ccc(OC)c(OC)c2)n1,0,8,-0.4,-18%,4%,-5
COc1ccc(C2=NOC3(CC(=O)N(c4ccc5ccccc5c4)C3=O)C2)c(OC)c1 (stereo not drawn),-3,-3,1.3,9%,-2%,5
Cc1cccc(C(=O)N(Cc2ccco2)c2c(N)n(Cc3ccccc3)c(=O)[nH]c2=O)c1,-1,1,1.4,-13%,14%,-18
Cc1ccc(OCCn2c(=S)[nH]c3ccccc32)c(C(C)C)c1,-14,-10,-3.0,1%,-17%,-2
CCCS(=O)(=O)c1nc(S(=O)(=O)c2ccc(C)cc2)c(NCc2ccccn2)s1,-9,5,-1.7,16%,-12%,0
Cc1ccc(N(CC(O)CN(C)C)S(=O)(=O)c2ccccc2)cc1 (stereo not drawn),4,8,-0.9,6%,6%,-16

Screens: PubChem BioAssay, National Center for Advancing Translational Sciences (NCATS)
